Compound activity deposited in PubChem by National Center for Advancing Translational Sciences (NCATS).
CtBP-E1A blk: CtBP/E1A binding inhibition; AlphaScreen GST-E1A/His-CtBP binding, 1536-well; hits give low values; control for the full effect not named in the record; AID 651724; activity change, % (concentration not given with the values); 340,000 tested, 0.49% active; in the data active means activity change below about -65%; inconclusive means about -30% to -65%; inactive means above about -30%; further: on the % scale 0 is the no-effect control and ±100 the full control effect
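In 5 uL wells, 23 nL compound meets equimolar GST-E1A and His-CtBP (5X stock 125 nM each) for 2 h, 37 °C. Beads (5X, 50 ug/mL) then 1 h, 37 °C, dark.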
gsp agonist: gsp mutant agonism. AID 624287. 340,000 tested, 0.13% active. Potency, µM (top dose mostly 76.9 µM), without a hit: top-dose activation (cAMP increase), usual class: activators. gsp mutant cells, cAMP HTRF, 30 min; control for the full effect not named in the record; active = well fitted activation curve with a large enough effect; inconclusive = small, poorly fitted or top-dose-only effect, or another doubt; inactive = no such curve, though single readings can be large or run the other way; cell line not stated here;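 further: phosphodiesterase inhibitor Ro 20-1724 added with compounds to block cAMP breakdown; potency means the concentration at half of the fitted maximal effect; nearly all actives have a fitted effect of over 60% in size; about a fifth of the inactives were tested at one dose only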
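Cells in DMEM/10% FBS with G418 were pretreated with compounds in DMSO plus […] (300 uM stock) for 30 min at 37C. cAMP was measured by HTRF (cAMP-d2 plus anti-cAMP antibody-K) after 30 min at room temperature.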
D2 agonist: activates the human D2 dopamine receptor. P14416. DiscoveRx PathHunter D2 beta-arrestin, luminescence, 90 min; 100% = 57 uM dopamine signal. activation, % (concentration not given with the values). 360,000 tested, 0.084% active. AID 624465; in the data active = activation above about 40%; inconclusive = about 15% to 40%; inactive = below about 15%; further: compound concentration not given in the record; the text of the record calls up to 30% inactive
Target sequence (P14416 whole entry, looked up): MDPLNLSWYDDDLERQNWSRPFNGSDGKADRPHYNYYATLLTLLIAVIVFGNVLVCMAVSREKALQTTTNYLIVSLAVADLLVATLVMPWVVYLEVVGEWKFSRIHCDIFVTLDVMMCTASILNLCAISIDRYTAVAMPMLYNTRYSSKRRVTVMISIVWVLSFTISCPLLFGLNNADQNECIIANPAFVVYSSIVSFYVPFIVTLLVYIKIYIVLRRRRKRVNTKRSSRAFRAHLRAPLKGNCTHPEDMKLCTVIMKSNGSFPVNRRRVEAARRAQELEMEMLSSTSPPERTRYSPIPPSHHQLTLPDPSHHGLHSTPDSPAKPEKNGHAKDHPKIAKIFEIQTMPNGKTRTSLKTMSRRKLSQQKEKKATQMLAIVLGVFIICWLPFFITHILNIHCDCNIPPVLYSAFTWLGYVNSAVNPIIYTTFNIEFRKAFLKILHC
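Agonist mode: compounds alone added to overnight-plated D2 PathHunter cells for 90 min at 37 C, with 57 uM final dopamine (EC100) defining full response. Beta-arrestin recruitment detected by chemiluminescent reagent, read after 1 h at ambient temperature.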
gsp antag: gsp mutant antagonism | Potency, µM (titrated, usually from 76.9 µM), for inactives: at the highest dose activity change, negative = inhibition, usual class: inhibitors | gsp-mutant cells, cAMP HTRF, 30 min; control for the full effect not named in the record | 340,000 tested, 0.4% active | AID 624288; active = falling curve of any shape with a large fitted effect; inconclusive = falling curve, mostly with a smaller effect; inactive = flat or rising curve; cell line not stated here;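 further: intracellular cAMP measured with PDE inhibitor Ro 20-1724 present during compound exposure; potency means the concentration at half of the fitted maximal effect; on the % scale 0 is the no-effect control and ±100 the full control effect; nearly all actives have a fitted effect of over 65% in size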
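Cells in G418 medium, seeded 16-24 h, 37C; buffer exchange to DPBS + 1 mM CaCl2, 0.5 mM MgCl2, 0.05% BSA; cpds in DMSO + […] (300 uM stock), 30 min 37C; HTRF cAMP detection.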
Six1-Eya2 blk: blocks human Six1 binding to Eya2; AlphaScreen GST-Six1/His-Eya2 binding, biochemical; hits give low values; control for the full effect not named in the record; activity change, % (concentration not given with the values); 360,000 tested, 0.56% active; AID 651725; in the data active = activity change below about -65%; inconclusive = about -30% to -65%; inactive = above about -30%; further: on the % scale 0 is the no-effect control and ±100 the full control effect
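Homogeneous AlphaScreen proximity assay pairing GST-Six1 with His-tagged Eya2 (added as 5X mix: 250 nM and 500 nM) in 50 mM Tris pH 8.0, 300 mM NaCl, 1 mM TCEP. Glutathione donor and nickel acceptor beads; 1 h, 37 °C, dark.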
D2 potentiator: potentiates the human D2 dopamine receptor allosterically; P14416; DiscoveRx D2 beta-arrestin cells, luminescence, 90 min; 100% = 57 uM dopamine signal; 360,000 tested, 0.23% active; potentiation, % (test concentration not listed); active = potentiation of 50% or more; inconclusive = 30% to 50%; inactive = 30% or less;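 further: compound concentration not given in the record; tested on top of an EC20 dose of dopamine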
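D2 cells co-treated with compound plus 50 nM dopamine (EC20) for 90 min at 37 deg C to detect potentiation. Beta-arrestin recruitment was read as enzyme-fragment luminescence after 1 h at ambient temperature. Full response was set by 57 uM dopamine.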
Numbers without * were called inactive; ? = inconclusive; nt = no result given; [ ] = dose if it differs, or a comment.

SMILES	CtBP-E1A blk	gsp agonist	D2 agonist	gsp antag	Six1-Eya2 blk	D2 potentiator
COCc1cc(=O)n2[nH]c(-c3ccco3)cc2n1	2	0%	-3.1	-11%	2	1
CN(C)c1ccc(-c2nnn(CC(=O)N3c4ccccc4CCc4ccccc43)n2)cc1	14	-11%	-0.7	-7%	-5	-5
COCCNc1c2c(c(C#N)c3nc4ccccc4n13)CCCC2	3	-2%[15.4 µM]	-1.2	4%	-3	-2
CC1=C(C#N)S(=O)(=O)C(C#N)C(c2ccccc2)C1 (centres undefined)	2	-11%[15.4 µM]	2.0	-21%	2	4
CSc1ccccc1NC(=O)COc1ccc(S(=O)(=O)N2CCCC2)cc1	0	-27%	-1.3	-5%	0	-9
Oc1ccc(N=Cc2cc(Br)c(N3CCOCC3)o2)cc1	-3	-8%	11	-24%	-14	?
NC(=O)c1nnn(-c2ccccc2)c1N	-21	-12%	-2.6	7%	-13	1
NC(c1csc(NC(=O)Nc2cccc(C(F)(F)F)c2)n1)C1CCCCC1 (centres undefined)	-3	nt	9.7	nt	1	-13
Cc1ccc(N2C(=O)c3ccccc3C2=O)cc1Cl	1	-7%	-2.4	1%[15.4 µM]	12	-11
CCOC(=O)C1CCCN(C(=O)c2cccc(S(=O)(=O)N(Cc3ccccc3)c3ccccc3OC)c2)C1 (centres undefined)	-3	-2%[15.4 µM]	-7.1	-18%	2	-17
Cn1c(CN2CCOCC2)nnc1SCC(N)=O	5	-9%	-0.1	6%	-1	-10
O=C(NCCN1CCNCC1)c1ccccn1	1	-18%	-0.3	8%	2	-14
CC1=C([N+](=O)[O-])C(c2ccccc2Cl)NC(=O)N1 (centres undefined)	13	-4%[15.4 µM]	-3.9	11%	10	-7
O=C(NCCCN1CCN(c2ccccc2F)CC1)C1CCN(S(=O)(=O)N2CCOCC2)CC1	-2	-37%[inhibitor]	?	5%	8	5
CC(NC(=O)c1ccccc1F)c1nnc(SCC(=O)N2CCN(c3ccccc3)CC2)n1C (centres undefined)	17	-3%[15.4 µM]	-2.4	12%	-2	-3
CN(CC(=O)Nc1ccccc1Cl)C(=O)c1cc(=O)[nH]c2ccccc12	0	-8%[15.4 µM]	1.5	5%	7	-1
O=C(O)C(Cc1ccccc1)N=Cc1c(O)c2ccccc2oc1=O (centres undefined)	5	13%	?	-20%	2	6
C/C(=N\NC(=O)c1cc2c(s1)CCC(C)C2)c1cccnc1 (centres undefined)	-5	-18%	1.0	-15%	-2	-11
CC1CC(C)CN(C(C(=O)NC2CCCCC2)c2cc3ccccc3o2)C1 (centres undefined)	-21	nt	-5.1	nt	4	-16
Cn1c(=O)n(C)c2cc([N+](=O)[O-])c(N3CCN(S(=O)(=O)c4ccccc4)CC3)cc21	-28	-61%[inhibitor]	-1.4	25µM*	-15	-11
N#C/C(=C\c1cccnc1)c1ccc([N+](=O)[O-])cc1	-1	15%[15.4 µM]	?	14%	-4	4
Cc1c(C(=O)N(C)C2CC(C)(C)NC(C)(C)C2)oc2c(F)cccc12	-10	14%	3.6	8%	0	-1
COC(=O)C(c1ccccc1)C(C(=O)OC)c1ccccc1 (centres undefined)	nt	6%	2.2	-2%	10	-4
O=C(CCn1cnc2ccccc2c1=O)Nc1ccc(S(=O)(=O)N2CCCCC2)cc1	-6	-4%	0.4	-10%	-2	0
O=C(NCCNC(=O)c1cc(F)cc(F)c1)c1cc(F)cc(F)c1	5	17%	1.3	12%	12	2
CC(NC(=O)CNC(=O)c1ccccc1F)c1ccc(-n2ccnc2)cc1 (centres undefined)	-7	17%	-2.9	10%	2	-1
COc1ccc(CCN(C)C(=O)C2CCN(Cc3ccccc3)CC2)cc1OC	-3	-66%[inhibitor]	-2.9	6%	1	-30
CSc1ccccc1NC(=O)Cc1ccccc1	10	-11%	-6.2	-4%	6	2
O=C(O)Cc1ccc(NC(=O)COc2ccc3ccccc3c2)cc1	-6	-82%[inhibitor]	-2.6	2%	5	-2
Clc1nssc1=Nc1ccc(Br)cc1	-5	-11%[15.4 µM]	-2.3	-20%	2	-7
COc1ccc(CCNC(=O)C2CCN(S(=O)(=O)N3CCC(C)CC3)CC2)cc1OC	3	21%	0.8	7%	3	3
O=C(Nc1ccc(S(=O)(=O)Nc2nccs2)cc1)c1cccc(N2C(=O)c3ccccc3C2=O)c1	-3	8%	-1.4	-12%	-25	-8
COc1ccc(C(C)C)cc1-c1cc(C(=O)NCc2cc(C(F)(F)F)cc(C(F)(F)F)c2)[nH]n1	-14	nt	-4.7	nt	-1	1
Cc1cc(C)c(C#N)c(SCC(=O)N(CCC#N)c2ccc3c(c2)OCCO3)n1	4	-75%[inhibitor]	-2.9	8%	-4	-5
COc1ccc(CC(=O)N2CCC(C)(C(=O)NS(=O)(=O)C3CC3)C2)cc1OC (centres undefined)	4	nt	-0.3	nt	5	-8
CCCN(CCC(=O)Nc1ccccc1F)CC1CC1	2	-5%	-2.1	2%[15.4 µM]	0	-13
Cc1cccc(NC(=O)CN(CCc2ccccc2)S(C)(=O)=O)c1	16	?	-5.8	4%	-3	-3
Cc1cc(C)c(S(=O)(=O)NCc2ccccn2)cc1C	-8	4%	-2.0	7%	-1	-1
COc1ccc(Br)cc1/C=N/n1c(COc2ccccc2)n[nH]c1=S	4	-7%	14	-4%	4	-4
CN1CCN(CC(=O)N(Cc2c(C#N)c3ccccc3n2C)c2ccccc2)CC1	-3	15%	-3.8	4%	0	-27
COc1ccc(CCNc2nnc(Sc3nnnn3-c3ccccc3)s2)cc1OC	-4	5%	-1.6	-14%	-1	0
O=C(CSCc1ccccc1Cl)NNC(=O)c1ccccc1	2	-11%	-2.4	2%	1	0
Cc1c(NC(=O)CN2C(=O)NC(C)(c3ccc(OC(F)F)cc3)C2=O)c(=O)n(-c2ccccc2)n1C (centres undefined)	-13	3%	-3.1	8%	-2	1
CC(=O)NC(c1ccc(Cl)cc1)c1c(O)ccc2ccc(O)cc12 (centres undefined)	-11	-3%[15.4 µM]	-4.5	-17%	-7	-13
CCOC(=O)/C(C(N)=NCc1ccco1)=C(/O)c1ccccc1	-3	?	2.9	0%	-1	1
c1ccc(-c2ccccc2-n2cnnn2)cc1	12	-18%	-1.9	9%	3	-4
COc1cccc(NC(=O)CSCc2cc(=O)n3nc(C4CC4)sc3n2)c1	3	13%	-4.4	8%	3	-7
COc1ccc(NC(=O)CSc2nnnn2-c2ccc(F)cc2)cc1	-3	-6%	-4.2	-1%	9	-6
O=C(CSc1nnnn1-c1cccnc1)Nc1ccccc1F	-4	-15%	0.4	-3%	-9	-23
O=C(Cc1c(F)cccc1Cl)N/N=C/c1cccs1	-2	-3%	-3.0	-17%	-3	-19

Entries of single compounds from above. Order of values: CtBP-E1A blk | gsp agonist | D2 agonist | gsp antag | Six1-Eya2 blk | D2 potentiator
COc1ccc(Br)cc1/C=N/n1c(COc2ccccc2)n[nH]c1=S is listed with 4 | -7% | 14 | -4% | 4 | -4
COCc1cc(=O)n2[nH]c(-c3ccco3)cc2n1 is listed with 2 | 0% | -3.1 | -11% | 2 | 1

Remaining list, next part.
SMILES	CtBP-E1A blk	gsp agonist	D2 agonist	gsp antag	Six1-Eya2 blk	D2 potentiator
O=C1NC(c2ccc(-c3ccccc3[N+](=O)[O-])o2)C(C(=O)c2ccc(F)cc2)C(O)(C(F)(F)F)N1 (centres undefined)	0	-31%[inhibitor]	?	12%	-20	58*
COCCNC(=O)C1CCC(Cn2c(=S)[nH]c3ccccc3c2=O)CC1 (centres undefined)	-8	-3%	-1.2	8%	-7	10
Cc1ccc(NC(=O)COC(=O)CCNS(=O)(=O)c2ccc(C)c(C)c2)cc1	9	23%	0.1	5%	8	-5
COC1=C(Nc2ccc(C)cc2)C(=O)c2ccccc2C1=O	-90*	-19%	-8.2	-6%	-86*	5
Cc1ccc(C(=O)c2c(NC(=O)CSc3nnc(N)s3)sc3c2CCCC3)cc1	?	10%[15.4 µM]	-4.4	-9%	-27	-7
COc1ccc([C@@H]2[C@@H]3C(=O)N(C(C)(C)C)C(=O)[C@@H]3[C@]3(Cc4ccc(Cl)cc4)C(=O)N(c4cccc(Br)c4)C(=O)N23)cc1	nt	-18%	2.9	4%	-1	-3
Oc1c(Br)cc(C2N=C(c3ccccc3Cl)NO2)cc1Br (centres undefined)	0	-13%	2.2	?	1	20
COCCNc1nnc(SCC(=O)N(C)c2c(N)n(Cc3ccccc3)c(=O)[nH]c2=O)s1	8	-43%[inhibitor]	-5.0	15%	0	2
O=C1CCCN1CCCNS(=O)(=O)c1ccc(Br)s1	6	12%	-0.3	8%	0	-8
CCS(=O)(=O)N1Cc2ccccc2CC1C(=O)Nc1nc2ccc(F)cc2s1 (centres undefined)	-2	0%	1.8	-7%	-1	-6

Ordered by the number under D2 agonist (falling): 3 of the compounds above
molecule | D2 agonist
COc1ccc([C@@H]2[C@@H]3C(=O)N(C(C)(C)C)C(=O)[C@@H]3[C@]3(Cc4ccc(Cl)cc4)C(=O)N(c4cccc(Br)c4)C(=O)N23)cc1 | 2.9
Oc1c(Br)cc(C2N=C(c3ccccc3Cl)NO2)cc1Br (centres undefined) | 2.2
COC1=C(Nc2ccc(C)cc2)C(=O)c2ccccc2C1=O | -8.2

The list goes on.
SMILES	CtBP-E1A blk	gsp agonist	D2 agonist	gsp antag	Six1-Eya2 blk	D2 potentiator
Cc1ccc(NC(=O)Nc2ccc3oc(C)nc3c2)cc1	4	-46%[inhibitor]	2.4	-16%	0	-7
O=C(COC(=O)/C=C/c1ccc(F)cc1)Nc1ccccc1-c1ccccc1	-6	0%[15.4 µM]	-0.2	13%	17	-7
Cc1ccc(S(=O)(=O)NNC(=O)Nc2ccc(C)c(C)c2)c(C)c1	3	1%	-2.0	-17%	0	-5
COc1ccc(/C=C(/NC(=O)c2ccccc2)C(=O)NCc2ccncc2)cc1	0	-32%	0.9	10%	7	-8
CC[C@]12c3[nH]c4ccc(OC)cc4c3CCN1C(=O)C(CC(=O)NCCCN(C)C)C[C@@H]2C(=O)N1CCN(C(=O)C2CC2)CC1 (some centres undefined)	4	nt	-2.5	7%	0	-2
c1ccc(-n2ncc3c2ncn2nnnc32)cc1	4	-16%	-3.0	3%	3	-17
CCS(=O)(=O)N1Cc2ccccc2CC1C(=O)NCCc1c[nH]c2ccccc12 (centres undefined)	16	19%[15.4 µM]	-3.9	-31%	-7	1
Nn1c(SCC(=O)Nc2cc(S(=O)(=O)N3CCOCC3)ccc2Cl)nnc1-c1cccnc1	0	0%[15.4 µM]	-3.3	9%	-2	-6
O=C(NCc1ccco1)c1cnn2cccnc12	-18	?	0.4	-1%	4	-3
CC(=O)N1CCc2cc(Br)cc(S(=O)(=O)CCC(=O)Nc3c(C)n(C)n(-c4ccccc4)c3=O)c21	-16	-5%[15.4 µM]	-4.0	15%	0	-2
